# Screens: PubChem BioAssay, ICCB-Longwood Screening Facility, Harvard Medical School
# KSHV LANA nucl: inhibitors of KSHV LANA-nucleosome binding, primary screen, biochemical, fluorescence polarization, FITC-LANA1-23, chicken nucleosomes | FITC-LANA1-23 / chicken nucleosome fluorescence polarization; hits give low values | z-score (no concentration beside the values) | 0.3% of 51,000 active | AID 720717, 2013;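 active = both repeat wells score below -2 in polarization z-score versus plate sample wells, excluding overly bright wells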;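 note: 100 nL library stock added to about 30 µL; numbers are from one replicate; some results filed as inactive read as strong as hits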
#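 Assay system: purified chicken nucleosomes with FITC-labelled LANA N-terminal peptide (1-23) / Probe or stimulus: 50 nM FITC-LANA1-23 probe / Compound dosing: pin-transferred compound, 100 nL / Times: compound with peptide–nucleosome mix 10–45 min at room temperature / Technique: fluorescence polarization, 480 nm excitation, 535 nm parallel and perpendicular emission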
# Ab BasE inh: BasE siderophore enzyme inhibitors, primary screen, biochemical, Acinetobacter baumannii ATCC 17978, fluorescence polarization. purified BasE, fluorescence polarization binding displacement. inhibition, % (concentration not given with the values). 0.1% of 84,000 active;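 active = both replicates above 25% with normal brightness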;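 note: 0% = negative plate control signal and 100% = positive plate control signal; stock transfer was 100 nL into about 30 µL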
# * = called active by the depositor; / = no result given; & = joins results of further samples. These rows are one share of the data (hit frequency here may not be typical).
SMILES,KSHV LANA nucl,Ab BasE inh
CSc1nc(N)nn1CCC#N,-0.13,0.1
O=C(c1ccc2c(c1)OCCO2)C1CCCCC1,-1.4,0.9
Cc1cc(N2CCCN(C)CC2)nc2cc(Cl)ccc12,-0.4,0.6
COc1ccc(CC2CCc3ncc(C)cc3C2)cc1 (configuration not stated),/,2.4
NS(=O)(=O)c1ccc(CCNC(=O)c2ccc(/C=N/O)cc2)cc1,/,-1.7
COC(Cn1c(-c2ccc(Cl)cc2)n[nH]c1=S)OC,-0.66,0.3
CN(CC(=O)Nc1c(Cl)cccc1Cl)CC(=O)N1CCc2ccccc21,/,-1.3
OC(COc1cccc2cccnc12)Cn1c2ccccc2c2ccccc21 (configuration not stated),/,2.0
COc1cccc(NC(=O)N2CCC(C(=O)O)CC2)c1,-0.87,1.8
COc1ccc(CN(C)S(=O)(=O)c2cn(C)c(=O)n(C)c2=O)cc1OC,/,0.2
CCC(C)COc1ccc(O)cc1 (configuration not stated),2.2,/
CC(C)CNc1oc(COc2ccccc2F)nc1C#N,0.41,-2.5
COc1ccccc1-n1c(CNC(=O)c2ccccc2)n[nH]c1=S,-0.1,-0.4
Cc1ccc(C(=O)CSc2nnc(-c3ccc4c(=O)n5c(nc4c3)CCCCC5)o2)s1,/,-0.3
COc1ccc(NC(=O)c2ccccc2N(C)S(C)(=O)=O)cc1,-1.3,3.5
O=C(N/C(=C\c1ccc2c(c1)OCO2)C(=O)N1CCOCC1)c1ccccc1Cl,/,0.8
COC(=O)CSc1cc(C(=O)c2nccn2C)c2ccccc2n1,/,1.3
CN(C)CCCN1c2ccccc2CCc2ccc(Cl)cc21,-0.4&-1.1,-5.1
Nn1c(SC2CCOC2=O)nnc1-c1cccnc1 (configuration not stated),/,0.1
COc1ccc2c(CN(C)CC(=O)Nc3ccc(N4CCOCC4)cc3)cc(=O)oc2c1,/,2.4
N#C/C(=C\Nc1cccc(Cl)c1)c1nc2ccccc2[nH]1,-1.7,-5.8
CC1CCC(n2cccc2)CC1 (configuration not stated),/,0.8
CCC(=O)c1ccc(OCC(=O)N2CCN(S(=O)(=O)c3cccc(C(F)(F)F)c3)CC2)cc1,/,-2.2
N#Cc1ccc(OCC(=O)OCC(N)=O)cc1,/,0.0
Cn1c(-c2ccccc2)c(C(=O)COC(=O)[C@@H]2CCCN2C(=O)c2cccs2)c2ccccc21,/,-0.5

# Already shown: five of the compounds above.
SMILES,KSHV LANA nucl,Ab BasE inh
COc1cccc(NC(=O)N2CCC(C(=O)O)CC2)c1,-0.87,1.8
COc1ccc(CN(C)S(=O)(=O)c2cn(C)c(=O)n(C)c2=O)cc1OC,/,0.2
CCC(C)COc1ccc(O)cc1 (configuration not stated),2.2,/
CC(C)CNc1oc(COc2ccccc2F)nc1C#N,0.41,-2.5
COc1ccccc1-n1c(CNC(=O)c2ccccc2)n[nH]c1=S,-0.1,-0.4

# Other records
SMILES,KSHV LANA nucl,Ab BasE inh
O=C(O)CCN1C(=O)S/C(=C\c2cccs2)C1=O,/,3.8
Cc1ccc(OCC(=O)Nc2cc(-c3nn(C)c(=O)c4ccccc34)ccc2N2CCOCC2)cc1,/,1.4
O=C(Cc1ccccc1)Nc1ccc2c(c1)OCO2,/,0.9
CCOC(=O)c1ccc(-c2ccc(-c3nc4ccc(S(N)(=O)=O)cc4[nH]3)o2)cc1,/,-4.0
COc1ccc(C(=O)OCC(=O)c2cc3c4c(c2)CC(=O)N4CCC3)cc1S(=O)(=O)N(C)C,/,-1.5
CN(C)c1ccc(-n2nc3ccc4ccccc4c3n2)cc1,2.7,-0.3
CCOC(=O)c1[nH]c(C)c(C(=O)OCCN2C(=O)c3ccccc3C2=O)c1C,/,1.3
CC1(C)Cc2c(sc3ncn4nc(-c5ccco5)nc4c23)C(C)(C)N1,-0.12,-1.5
Cc1ccccc1CSc1[nH]c(=O)ncc1C,0.54,1.9
CCOc1ccc(NC(=O)NC23CC4CC(CC(C4)C2)C3)cc1,/,-0.5
O=C1c2cccnc2C(=O)N1Cc1ccc(S(=O)(=O)Nc2cccnc2)cc1,0.089,0.7
CCOc1ccc2c(=O)c(Oc3ccc(OC)cc3)coc2c1,/,0.6
CC1(C)CC(=O)c2sc(NC(=O)CN3CCN(C(=O)c4ccco4)CC3)nc2C1,0.1,0.9
C=CCNc1nc(-c2ccccc2)cs1,-0.42,-2.0
COc1ccc(OC)c(CNC(=O)Cn2ncc3c(=O)oc4ccc(C)cc4c32)c1,-0.45,11
O=C(CNc1ccccc1)c1ccc(Cl)cc1,0.3,-1.7
COc1ccc(-c2c(NC(=O)C(C)C)n(C)c3ccccc3c2=O)cc1,-0.008,/
CCCN1C2=S=C(CSc3nc4ccccc4n3CCC)C(=O)N2c2ccccc21,/,0.1
O=C(CN1C(=O)c2ccccc2C1=O)c1ccc(OC(F)F)cc1,1.2,-4.0
OC1(C(F)(F)F)CC(/C=C/c2ccccc2)=NO1 (configuration not stated),/,1.5
CCOC(=O)Cn1c(=O)c(=O)n(C)c2c1c(C)nn2-c1ccccc1,0.36,-0.7
c1coc(CNc2ncnc3nc[nH]c23)c1,0.83&-0.85,0.9&-2.0
COc1ccc(C(=O)Nc2ccccc2)cc1S(=O)(=O)N1CCN(c2ccccc2)CC1,-1.3,1.8
N#C/C(=C\Nc1ccc(OC(F)(F)F)cc1)C(=O)c1ccco1,-0.53,2.6
CC1(O)COc2ccccc2O1 (configuration not stated),-0.16,-1.5

# Exported as tab-separated lines: part of the list above
canonical_smiles	KSHV LANA nucl	Ab BasE inh
CCCN1C2=S=C(CSc3nc4ccccc4n3CCC)C(=O)N2c2ccccc21	/	0.1
O=C(CN1C(=O)c2ccccc2C1=O)c1ccc(OC(F)F)cc1	1.2	-4.0
OC1(C(F)(F)F)CC(/C=C/c2ccccc2)=NO1 (configuration not stated)	/	1.5
CCOC(=O)Cn1c(=O)c(=O)n(C)c2c1c(C)nn2-c1ccccc1	0.36	-0.7
c1coc(CNc2ncnc3nc[nH]c23)c1	0.83&-0.85	0.9&-2.0
COc1ccc(C(=O)Nc2ccccc2)cc1S(=O)(=O)N1CCN(c2ccccc2)CC1	-1.3	1.8
N#C/C(=C\Nc1ccc(OC(F)(F)F)cc1)C(=O)c1ccco1	-0.53	2.6

# The list continues.
SMILES,KSHV LANA nucl,Ab BasE inh
CN(C)c1nnnn1-c1cccc(C(F)(F)F)c1,2.8,/
CCC(=O)Nc1c(C(=O)OC)sc2ccccc12,-1.7,1.7
Cc1cc(N2CCCC2)nc(SCC(=O)c2ccccc2)n1,-0.34,0.4
Cc1ccc(C2=[N+]([O-])C3(CCCCC/C3=N\NC(N)=S)N(O)C2(C)C)o1 (configuration not stated),-1,0.8
CC1CCCCC1NC(=O)c1ccc[nH]c1=S (configuration not stated),/,0.5
COC(=O)c1cc(=O)c2cc(C)ccc2o1,/,0.3
CC(C)OC(=O)C(C)(C)Oc1ccc(C(=O)c2ccc(Cl)cc2)cc1,-0.19&0.023&0.064&0.66,-2.3&3.4
CCn1c(=O)cc(OCC(=O)NCCCN2CC(C)CC(C)C2)c2ccccc21 (configuration not stated),-0.83,0.3
CCN(CC)S(=O)(=O)c1ccc(/C=C/C(=O)Nc2ccc(-n3cnnn3)cc2)cc1,/,-0.9
Cc1nc(Cc2nnc(SCC(=O)N3c4ccccc4Sc4ccccc43)o2)cs1,/,0.1
Cc1ccc(Sc2ccc(CO)o2)cc1,-0.88,2.9
CN(C(=O)/C=C\C(=O)O)C1CCS(=O)(=O)C1 (configuration not stated),0.93,-2.3
C=CCN1C(=O)CS/C1=N\S(=O)(=O)c1ccc(Cl)s1,/,-8.4
CCOC(=O)c1c(N)n(C2CCCCC2)c2nc3ccccc3nc12,/,2.3
CC(Sc1nncn1C)C(=O)Nc1ccc(Cl)cc1 (configuration not stated),/,1.3
O=C(O)CCCC(=O)N1CCN(S(=O)(=O)c2ccc(Br)s2)CC1,-0.24,-1.5
c1ccc(CN(Cc2ccccc2)c2nn[nH]n2)cc1,0.83,/
CN(CC(=O)Nc1cc(S(C)(=O)=O)ccc1Cl)Cc1nc2ccccc2c(=O)[nH]1,/,2.5
CCCCN1C(=O)/C(=C\c2ccc3c(c2)OCO3)SC1=S,0.067,-2.2
COc1ccc(CCN(C)S(=O)(=O)c2ccc(Cl)s2)cc1OC,/,2.1
NC(=O)CSc1ccccc1NC(=O)c1ccc(=O)[nH]c1,/,-0.2
C=CCNC(=O)c1ccc(C)c(S(=O)(=O)N(CC)CC)c1,/,0.5
CCS(=O)(=O)Nc1cc2c3c(n(S(=O)(=O)CC)c2cc1OC)CCCC3=O,-1.7,1.4
COc1ccccc1N(C)S(=O)(=O)c1ccc(Cl)c(C(=O)O)c1,/,1.7
Nc1nc(N)nc(N2C(=O)c3ccccc3C2=O)n1,-0.054,0.9
# New compounds follow.
SMILES,KSHV LANA nucl,Ab BasE inh
O=C(NC1CCCCC1)C(Cc1ccccc1)N1C(=O)C2C3C=CC(C3)C2C1=O (configuration not stated),0.11,0.7
Cc1ccc(-c2ccccc2)n1-c1ccc(O)cc1,-0.34,0.6
CC(C)(C)C(=O)c1sc2c(c1N)c(=O)[nH]c(=O)n2C1CCCCC1,/,-1.0
S=C(Nc1ccccn1)Nc1ccccn1,/,1.3
Cn1c(=S)[nH]c2sccc2c1=O,/,4.5
N#CCSc1ccccc1C(=O)O,/,0.3
COc1ccc(-c2cc(C(=O)N(C)c3cccc(C)c3)no2)cc1S(=O)(=O)N1CCC(C)CC1,1.1,0.1
CCOC(=O)C1CCN(CC(=O)c2ccc(C)cc2)CC1,-0.29,/
CCCN(CCC)Cc1c(O)ccc2c(=O)c(-c3ccccc3)coc12,/,1.9
Cc1c(C(=O)Nc2ccccc2)cnn1-c1ccc(F)cc1,/,-1.4
N=C(N)SCC1CN=C(N)S1 (configuration not stated),-0.89,2.7
O=C(O)c1ccc(NS(=O)(=O)c2ccc(N3C(=O)CCC3=O)cc2)cc1,-0.74,4.9
Cc1cc(SCCN2CCOCC2)nc2ccccc12,0.2,-1.9
Cc1cc(C)cc(N(C(=O)C(C)(C)C)C2C=CS(=O)(=O)C2)c1 (configuration not stated),-0.36,-1.8
Nc1ccc2c(c1)N1CCN=C1S2,0.069,-0.3
CCn1cc(SCC(=O)Nc2nc3ccccc3s2)c2ccccc21,-0.59,0.0
O=C(O)CNC(=O)CSc1ccc(Cl)cc1,/,0.1
O=C(COc1ccccc1)NC(=S)Nc1ccc2[nH]c(=O)[nH]c2c1,/,2.0
Cc1cc(C)c2c(c1)CC(C)(C)/C(=N/NC(=O)CC#N)C2=O,-0.36,1.4
COc1c(NC(=O)N2CC(C)OC(C)C2)csc1Cl (configuration not stated),/,3.1
COc1ccc(C2=CSC3=C(C(=O)c4cccc(S(=O)(=O)N5CCOCC5)c4)CCN23)cc1,/,0.3
CCC1CCCCN1C(=O)CSc1cccc[n+]1[O-] (configuration not stated),/,0.6
CCn1c(SC)nnc1C1CCCN(S(=O)(=O)c2ccc3c(c2)OCCO3)C1 (configuration not stated),-0.21,4.5
Cn1c(=O)cc(OCC(=O)Nc2ccc(F)cc2F)c2ccccc21,0.031,3.7
Cc1cc(C)nc(SCC(=O)Nc2ccc(N3CCOCC3)cc2)n1,-1.8,0.6
# New compounds follow
SMILES,KSHV LANA nucl,Ab BasE inh
CCc1ccc(NC(=O)CCS(=O)(=O)c2ccc3c(c2)CC(=O)N3C)cc1,/,-0.2
CCCC1CCC(=NN=C(N)N)CC1 (configuration not stated),/,-0.6
Cc1ccc(Nc2nc(CSc3nnnn3C3CC3)cs2)cc1,/,-2.4
CC(C)CC(=O)Nc1ccccc1NC(=O)CC(C)C,-0.38,0.9
COC(=O)c1cc2occc2n1Cc1cn2ccccc2n1,0.52,-2.9
CCOC(=O)c1c(/N=C/N(C)C)sc(C(=O)OC)c1C,/,1.8
CCn1c(-c2ccc(Cl)cc2)csc1=Nc1ccc(O)cc1,/,1.3
NC(=O)NC(=O)CC1Nc2ccccc2NC1=O (configuration not stated),/,-4.1
FC(F)(F)COc1ccc(-c2nc(-c3ccc(Cl)cc3)no2)cn1,0.1,0.8
CCOC(=O)O[C@]1(C(=O)OCCl)CC[C@H]2[C@@H]3CCC4=CC(=O)C=C[C@]4(C)[C@H]3[C@@H](O)C[C@@]21C,-0.14,/
O=C(N/C=N/O)c1ccc(-n2ccnc2)cc1,-0.64,/
CSc1nc(C)c(Oc2ccccc2)c(=O)n1C,0.25,-1.6
CC(=O)NC(Nc1ccc(S(N)(=O)=O)cc1)(C(F)(F)F)C(F)(F)F,-0.61,2.0
CS(=O)(=O)c1ccc(C(=O)NC2CCCCC2)cc1,/,4.0
COC(=O)c1cn(NC(=O)CC2CCCCC2)c(=O)c2ccccc12,0.24,-2.5
CNC(=O)N1c2ccccc2NC(=O)CC1C (configuration not stated),2.5,-2.8
Cc1ccc2nc(CN)[nH]c2c1,2.6,-1.1
CSc1cccc(NC(=S)N(C)C)c1,0.66,-0.2
CNC(=O)CSCc1cc(C)cc(C)c1,0.47,2.7
CC(=O)N1CCc2cc(S(=O)(=O)CCC(=O)Nc3ccc(C(F)(F)F)cc3)ccc21,-0.39,-1.6
Cc1cccc(N2CC(c3nc4ccccc4n3C)CC2=O)c1 (configuration not stated),/,-13
O=C(NCN1CCC(Cc2ccccc2)CC1)c1nc(-c2ccncc2)no1,-0.062,0.4
CCOc1ncccc1C(=O)N1CCN(S(=O)(=O)c2ccc3c(c2)OCCO3)CC1,/,-1.4
CC(C)CCC1(C)NC(=O)N(CC(=O)c2ccc3c(c2)OCO3)C1=O (configuration not stated),/,-0.2
CSc1nnc(C2CCCN2Cc2cccnc2)n1C (configuration not stated),-0.29,-1.5
Cc1cc(C(=O)CSc2nnc(NCc3ccccc3)s2)c(C)n1C,/,-3.1
